From PubChem BioAssay
VCAM-1 up – enhancers of VCAM-1 display on endothelial cells, cell-based, plate reader, pooled HUVEC, TNFa stimulus (AID 455); HUVEC TNFa-induced VCAM-1 immunofluorescence, plate reader; numbers were filed only for top-ranked candidate wells; augmentation, % at 5 µM; 0.2% of 10,000 active;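 active means a compound raising TNF-alpha-driven VCAM-1 surface staining, with its hit status upheld on visual or statistical review; inactive means the rest, including hits rejected on review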;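 further: 0% = TNFa with vehicle and 100% = strongest image-checked hit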
26S disassembly – blocks ATP-dependent breakdown of the yeast 26S proteasome | anti-FLAG beads, GFP-proteasome disassembly, flow cytometry | inhibition of disassembly, % (no concentration beside the values) | 0.2% of 24,000 active | AID 751;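 active means above 40%; inconclusive means likely self-fluorescent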;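 further: plate controls were ATP control with full disassembly for no effect and ATP-gamma-S intact proteasomes for full effect; higher percent means more bead fluorescence retained so stronger block of disassembly; stock transfer was 100 nL into about 10 µL; wells with too few beads may also be inconclusive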
An asterisk follows results filed as active; i = inactive; ? = inconclusive; · = no result given.

Value order – VCAM-1 up	26S disassembly
- CCSc1nc2c(c(=O)[nH]1)C(C(C)C)C(C#N)=C(N)O2 (stereo unspecified)
 : ·	-1.7
- CC(C)CN(CC(C)C)c1nc(N)c(C#N)c(CC#N)c1C#N
 : i	4.0
- O=C(CCCCn1c(=O)c2ccccc2n(CC(=O)Nc2cccc(F)c2)c1=O)NCc1ccco1
 : ·	-0.6
- CCOC(=O)N1CCN(c2nc(C)cc(C(F)(F)F)n2)CC1
 : ·	-0.3
- O=C(Oc1ccc2ccc(OC(=O)N3CCOCC3)cc2c1)N1CCOCC1
 : i	-1.1
- CN1CCCN(C(=O)c2cc(=O)[nH]c3ccccc23)c2nc3ccccc3nc21
 : i	-0.8
- Cc1cc(Nc2ccccc2C(=O)O)nc2nc3ccccc3c(=O)n12
 : ·	1.0
- CN(c1ccccc1C(N)=O)S(=O)(=O)c1ccccc1
 : i	0.5
- CCn1c(=NC(=O)CSC(C)=O)sc2ccccc21
 : ·	-0.8
- COc1ccccc1C(=O)OCn1nnc2ccccc2c1=O
 : i	0.0

Next structures:
Value order – VCAM-1 up	26S disassembly
- CC(C)c1nc(=S)n(-c2ccccc2)[nH]1
 : ·	-0.2
- O=C(CSCc1ccccn1)Nc1ccccc1
 : i	-1.8
- Cc1ccc(CNC(=O)CCNC(=O)Cn2ccc3ccccc3c2=O)o1
 : ·	-1.0
- OCC#CCSc1nnc(-c2ccc(Br)cc2)o1
 : ·	-0.2
- COc1ccc(OC)c(NC(=O)C2C3CC4OC(=O)C2C4C3)c1 (stereo unspecified)
 : i	1.4
- COc1ccc(N2CCN(CCNC(=O)c3c(C)cc(=O)oc3C)CC2)cc1
 : ·	-0.8
- Nc1ccccc1NC(=O)c1ccccc1
 : ·	-3.1
- CC(C)NC(=O)C1CCCN(c2nnc(-n3cccc3)s2)C1 (stereo unspecified)
 : ·	0.2
- O=C(NCCN1CCN(C(=O)Nc2ccccc2)CC1)Nc1ccccc1
 : ·	0.1
- O=C(c1ccco1)N1CCN(S(=O)(=O)c2ccc(Oc3ccccc3)cc2)CC1
 : i	-0.8

The results go on.
Value order – VCAM-1 up	26S disassembly
- CN1C(=O)CC(c2ccco2)Sc2ccccc21 (stereo unspecified)
 : ·	-0.7
- CCNC(=O)CC1C(=O)N(c2ccc(F)cc2)C(=O)N1Cc1ccccn1 (stereo unspecified)
 : ·	4.1
- CN(C)CCNC(=O)c1cc2c(=O)n(C)c3ccccc3c2n1C
 : ·	0.7
- O=C(NCC(c1cccnc1)N1CCOCC1)c1cccc(Cl)c1 (stereo unspecified)
 : ·	-3.2
- Cc1nc2ccc(NC(=O)NCc3ccco3)cc2s1
 : i	0.5
- Cc1cccc(NC(=O)C2CCN(S(=O)(=O)c3cccc4cccnc34)CC2)n1
 : ·	0.6
- CCOC(=O)COc1ccc2c(c1)C(=O)CC(C)(c1cccnc1)O2 (stereo unspecified)
 : ·	-1.8
- COc1ccc(-c2cc(C(F)(F)F)n3nc(C)cc3n2)cc1
 : ·	1.9
- CCN(CC)Cc1c(C(=O)OC(C)C)nnn1-c1nonc1N
 : ·	?
- Cc1ccc(C(=O)CSc2nnc(CNc3ccc(C)cc3C)o2)cc1
 : i	-0.4

Later entries.
Value order – VCAM-1 up	26S disassembly
- CCOC(=O)c1c(C)[nH]c(C)c1C(=O)COC(=O)CNC(=O)c1ccc(OCC)cc1
 : i	7.0
- Nc1nc2n(n1)C(c1c(F)cccc1Cl)CC(c1ccc(F)cc1)N2 (stereo unspecified)
 : i	-2.8
- CCN1CCN(c2ncc(C(=O)N3CCN(c4ccccc4OC)CC3)c3ccccc23)CC1
 : i	1.4
- Cc1noc(C)c1S(=O)(=O)N1CCC(C(=O)Nc2ccc(OC(F)(F)F)cc2)CC1
 : ·	5.3
- CC(=O)c1nnn(-c2nc(N3CCCC3)nc(N(c3ccccc3)c3ccccc3)n2)c1C
 : i	0.2
- CCOc1ccc(-c2nnc(N(CC)C(=O)C3CCC3)s2)cc1
 : i	1.4
- O=C(NC1(O)C(=O)c2ccccc2C1=O)c1ccccc1
 : ·	1.8
- CS(=O)CSc1nc2c(cc1C#N)CCCC2 (stereo unspecified)
 : ·	1.0
- Cc1ccc(-c2noc(CCC(=O)N3CCCc4ccccc43)n2)cc1
 : ·	-2.7
- CCOc1ccc(NC(=O)C2C3C=CC4(CN(C(C(=O)OC)C(C)C)C(=O)C24)O3)cc1 (stereo unspecified)
 : ·	2.1

Next part:
Value order – VCAM-1 up	26S disassembly
- Cc1ccccc1N(CC(=O)NCC1CCCO1)C(=O)C1(C)CC(=O)N=C2C=CC=CN21 (stereo unspecified)
 : i	-0.3
- CCN(CC)C(=O)CSc1ncnc2c1nnn2-c1ccc(OC)cc1
 : ·	-1.2
- O=C(NCc1ccccc1)c1cc(-c2ccco2)on1
 : i	1.4
- Cc1noc(C)c1S(=O)(=O)N1CCCC(C(=O)N2CCN(C3CCCCC3)CC2)C1 (stereo unspecified)
 : ·	4.7
- Cn1c(=O)c2c(nc(NCc3ccccc3)n2CCCc2ccccc2)n(C)c1=O
 : i	-0.8
- Cc1ccc(-c2nnc3n2N=C(c2ccccc2)CS3)cc1
 : ·	-1.4
- CCOC(=O)C1CCCN(C(=O)C2CCN(S(=O)(=O)c3cccs3)CC2)C1 (stereo unspecified)
 : ·	-0.7
- Cc1cc(C(=O)Nc2ccc(S(=O)(=O)Nc3onc(C)c3C)cc2)cs1
 : i	-1.4
- CCN(CC)S(=O)(=O)c1ccc(-c2nnc3sc4cccc(C)c4n23)cc1
 : ·	0.7
- COc1cccc(NC(=O)NCc2cccn2C)c1
 : ·	-5.0

Later entries
Value order – VCAM-1 up	26S disassembly
- CCOc1ccccc1-n1nnnc1SCC(=O)Nc1cc2oc3ccccc3c2cc1OC
 : i	1.5
- O=C1NCCN1CCNS(=O)(=O)c1ccc2ccccc2c1
 : ·	0.0
- CCCCN(C(=O)c1c(C)[nH]c(C(=O)OCC)c1C)c1ccccc1
 : ·	4.2
- Cc1nc2ccccc2n1CCc1nc2c3ccccc3nc(SCC(=O)NCc3ccco3)n2n1
 : ·	0.8
- COCCCN(C(C)=O)c1nc(-c2ccccc2)cs1
 : i	4.2
- Cc1cc(=O)oc2cc(OCC#N)ccc12
 : i	-0.3
- Cc1ccc(-n2c(SCC(=O)NCC3CCCO3)nc3c(c2=O)SCC3)cc1 (stereo unspecified)
 : ·	0.2
- Cc1cccc(-c2cc3nc4c(c(N5CCOCC5)n3n2)CCCC4)c1
 : i	0.4
- COc1ccccc1-c1cc(C(=O)NCc2ccccc2)no1
 : ·	1.1
- CCOC(=O)N1CCN(C(=O)CSc2nnc(-c3c[nH]c4ccccc34)n2CCOC)CC1
 : ·	1.6

Further structures:
Value order – VCAM-1 up	26S disassembly
- CCOC(=O)CSc1nc2ccccc2n1CC(=O)N1CCN(c2ccccc2)CC1
 : i	0.2
- O=C(NCCCN1CCOCC1)c1ccc(CS(=O)(=O)Cc2ccccc2Cl)o1
 : ·	-1.2
- O=C(CCn1c(=O)oc2ccccc21)NCCN1CCc2ccccc2C1
 : i	0.0
- O=C(CSc1nnc(CNC(=O)c2c(F)cccc2Cl)o1)c1ccccc1
 : i	-0.1
- CC1CCCCC1NC(=O)c1ccc(N2CCCC2=O)cc1 (stereo unspecified)
 : i	0.3
- CCOC(=O)c1ccc(NC(=O)Nc2ccn(C)n2)cc1
 : i	0.0
- Cc1nc2c3ccccc3n(CC(=O)c3ccc(F)cc3)c(=O)n2n1
 : ·	-0.7
- COc1ccccc1N1CCN(C(=O)C2CCN(S(=O)(=O)N3CCOCC3)CC2)CC1
 : ·	0.5
- CCOC(=O)c1ccc2[nH]c3c(c2c1)CN(C)CC3
 : i	0.8
- CC1CCc2nn(CC(=O)NCCCN3CCOCC3)cc2C1 (stereo unspecified)
 : i	0.1

Later entries:
Value order – VCAM-1 up	26S disassembly
- Cc1cccc(CCNC(=O)C2CCN(S(=O)(=O)c3c(C)nn(C)c3C)CC2)c1
 : ·	-1.1
- CCN1CCN(C(=O)c2cc3c(s2)-c2ccccc2S(=O)(=O)C3)CC1
 : ·	1.2
- CC(=O)OC1CCC(OC(C)=O)c2c1n([O-])c(C)c(C)[n+]2=O (stereo unspecified)
 : ·	-1.9
- CCOC(=O)N1CCC(NC(=O)C2CCN(C(=O)N3CC(C)Oc4ccc(C)cc43)CC2)CC1 (stereo unspecified)
 : ·	-0.1
- CCOc1ccc(C2=Nn3c(nnc3-c3ccccc3)SC2)cc1Cl
 : ·	-2.5
- COc1ccc(CNC(=O)CCS(=O)(=O)c2cccc3nonc23)cc1
 : ·	-0.3
- Cc1cccc(-n2c(Cc3cc(=O)[nH]c(=O)[nH]3)nnc2SCC(=O)N2CCCCC2)c1
 : ·	-1.0
- COc1ccc(NC(=O)CN(c2ccc(C)cc2)S(=O)(=O)c2c(C)nn(C)c2C)cc1OC
 : ·	-4.0
- O=C(Cc1ccsc1-c1ccccc1)NO
 : i	0.1
- CC(C)Sc1nc2c(c(=O)n1-c1ccc(F)cc1)SCC2
 : i	2.0

Remaining list, next part:
Value order – VCAM-1 up	26S disassembly
- CC(=O)c1c(C)nc(C)nc1NC(=O)Cc1ccccc1
 : i	-0.4
- O=C(Nc1ccc(Cl)cc1F)c1ccc(COc2c(F)c(F)c(F)c(F)c2F)o1
 : ·	1.8
- CCOc1ccc(NC(=O)c2oc3ccccc3c2NC(=O)C(C)C)cc1
 : ·	-0.3
- CC(=O)OC1c2ccccc2C(=O)N1c1ccccc1C (stereo unspecified)
 : i	-2.1
- Cc1nc2ccc(S(=O)(=O)N(C)CC(=O)NCc3ccc4c(c3)OCO4)cc2s1
 : ·	-1.6
- C=CCOC(=O)C1=C(C)Nc2ncnn2C1c1cc(Br)ccc1F (stereo unspecified)
 : ·	0.1
- CC1=C(C(=O)Nc2cccnc2)C(c2ccc(C(C)C)cc2)n2ncnc2N1 (stereo unspecified)
 : i	-0.1
- CCOC(=O)CN1C(=O)COc2ccc(C(C)(C)C)cc21
 : ·	-2.5
- CCOC(=O)c1ccccc1NC1c2ccccc2C(=O)N1c1ccc(C)cn1 (stereo unspecified)
 : ·	-1.1
- Cc1cc(C)c2c(n1)nn1c(C3CC3)cc(C(F)(F)F)nc21
 : i	0.8

Further records follow:
Value order – VCAM-1 up	26S disassembly
- Fc1ccc2nc3[nH]c4ccccc4c3nc2c1
 : ·	0.4
- O=S1(=O)C=C(Sc2nc3cc(Cl)ccc3o2)c2ccccc21
 : ·	12.9
- COc1ccc(N2C(=O)CCC(C(=O)N3CCOCC3)C2c2ccc(F)cc2)cc1 (stereo unspecified)
 : ·	0.3
- COc1cccc(-c2nn(C)c3sc(C(=O)NCc4ccc5c(c4)OCO5)cc23)c1
 : ·	1.3
- Cc1ccc(C(=O)NCCNC(=O)CN2CCOCC2)cc1
 : ·	-1.1
- O=C(CCCn1c(=O)c2sccc2n(CC(=O)NCc2ccco2)c1=O)NCc1ccco1
 : i	1.6
- Cc1cccc(C)c1OCc1nnc(SCC(=O)Nc2ccccc2F)o1
 : i	-0.5
- CC(=O)N1CCc2cc(S(=O)(=O)NCCC(=O)Nc3cc(C)cc(C)c3)ccc21
 : i	4.0
- COC(=O)N(C)CCCC1(C)C(=O)N(C)c2ccc(O)cc21 (stereo unspecified)
 : ·	-1.3
- COc1cccc(C2=CC(c3cccc(OC)c3OC)n3nnnc3N2)c1 (stereo unspecified)
 : ·	-0.1

Some of the entries so far, as labelled records.
mol: Cc1cccc(C)c1OCc1nnc(SCC(=O)Nc2ccccc2F)o1
  VCAM-1 up: i | 26S disassembly: -0.5
mol: COc1cccc(NC(=O)NCc2cccn2C)c1
  VCAM-1 up: · | 26S disassembly: -5.0
mol: CCOC(=O)CSc1nc2ccccc2n1CC(=O)N1CCN(c2ccccc2)CC1
  VCAM-1 up: i | 26S disassembly: 0.2
mol: COc1ccc(-c2cc(C(F)(F)F)n3nc(C)cc3n2)cc1
  VCAM-1 up: · | 26S disassembly: 1.9

Additional results.
Value order – VCAM-1 up	26S disassembly
- CCCCCSc1nncc(=O)[nH]1
 : ·	-0.1
- CCN(CC)CCOC(=O)c1ccc(NC(=O)COc2cc(=O)n(CC)c3ccccc23)cc1
 : i	-0.5
- CC(CCc1ccccc1)NCC(O)c1ccc(O)c(C(N)=O)c1 (stereo unspecified)
 : i	-0.2
- Cc1cc2nc3c(nc2cc1C)C1(C(=O)O)CCC3(C)C1(C)C (stereo unspecified)
 : i	2.2
- Nc1nc(CN2CCOCC2)cs1
 : i	0.0
- CCOC(=O)N1CCN(C(=O)C(C)n2nc(C)n3c(cc4sccc43)c2=O)CC1 (stereo unspecified)
 : ·	-2.4
- O=C(O)CC1Oc2ccc(Cl)cc2NC1=O (stereo unspecified)
 : ·	0.4
- CC1Oc2ccccc2N(CC(=O)N(Cc2ccccc2)Cc2ccccn2)C1=O (stereo unspecified)
 : i	-0.9
- COc1ccc(N=C2C(=O)Nc3ccccc32)cc1
 : i	-6.7
- O=C(Nc1ccc2c(c1)OCO2)c1cnc2n(c1=O)CCS2
 : ·	-0.8

Following part:
Value order – VCAM-1 up	26S disassembly
- O=C(NCC1CCCO1)c1cccc(N2CCCC2=O)c1 (stereo unspecified)
 : i	-2.3
- O=C(c1ccco1)N1CCN(C(=O)c2cccc3c2C(=O)N(C2CCCCC2)C3)CC1
 : ·	0.4
- COc1cccc(C2CC(c3cccc(C)c3)n3ncnc3N2)c1 (stereo unspecified)
 : ·	0.1
- CSc1nc(-c2ccco2)nn1S(=O)(=O)c1ccc(C)cc1
 : ·	2.7
- O=C(Cc1c(C(=O)O)[nH]c2ccccc12)NC1CCN(Cc2ccccc2)CC1
 : ·	-1.2
- COc1ccc(CN2CC(C(=O)NCCCN3CCOCC3)CC2=O)cc1 (stereo unspecified)
 : ·	-0.1
- Cc1ccc(NC(=O)C2CCCN(S(=O)(=O)c3cnc[nH]3)C2)cc1C (stereo unspecified)
 : i	0.1
- O=c1[nH]c(N2CCc3ccccc32)nc2c1CCCC2
 : i	0.7

Some of the compounds tested, so the mix of outcomes need not match the whole.
